From PubChem BioAssay
AID504770 = E. coli YBA685 growth inhibition, screen for V. cholerae RctB inhibitors; E. coli YBA685 rctB-dependent plasmid, OD600 growth, 3 h; active compounds read low; z-score (test concentration not listed); hit rate 0.27% among 130,000;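 active means z-score under -2 on both plates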;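 further: wells of about 30 µL received 100 nL stock; score is relative to mean and SD of the test wells; the first replicate is given; strong numbers were not always called active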
CapD inh = blocks the Bacillus anthracis CapD enzyme | z-score (concentration not given with the values) | purified CapD enzyme, fluorescence intensity read-out; active compounds read low; some hits fall short of the stated cut | hit rate 0.23% among 140,000 | AID 492967;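 active means z-score under -4 in either of two replicates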;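 further: stock transfer was 100 nL into about 40 µL; score is relative to mean and spread of the plate; one replicate is shown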
The depositor's hits bear a star; / = not tested or not shown. The list is partial; count on the stated rates, not on these rows.

#	SMILES	AID504770	CapD inh
1	S=c1[nH]nc(-c2ccncc2)n1-c1ccc2c(c1)OCO2	0.9	-0.865
2	CC(=O)Nc1nc(-c2ccccc2)[n+](-c2ccccc2)s1	-0.55	0.165
3	Nc1nncn1C(=O)CCCOc1ccccc1	1.2	-0.585
4	Cc1nc(/N=C/N(C)C)c(Br)cc1Br	-0.45	0.01
5	NC(=O)COc1coc(CN2CCc3ccccc3C2)cc1=O	1.15	/
6	O=C(O)CCn1ccnc1	-0.4	/
7	COc1ccccc1NC(=O)Cn1cnc2sc(C(=O)N3CCN(c4ccccc4OC)CC3)c(C)c2c1=O	/	0.14
8	Cc1ccc(S(=O)(=O)n2c(SCc3cccc(F)c3)nc3ccccc32)cc1	/	0.01

The list goes on:
#	SMILES	AID504770	CapD inh
9	CCC(=O)N1CCc2cc(S(=O)(=O)NC(CC(C)C)C(=O)Nc3cc(C)ccc3C)ccc21 (centres undefined)	-0.2	1.11
10	Cn1c(CSCC(=O)Nc2ccccc2)nnc1SCC(=O)c1ccc(F)c(F)c1	-0.7	-0.14
11	CCOC(=O)CCc1c(C)n[nH]c1C	0.1	/
12	COC(=O)c1ccc(C(=S)NCC(OC)OC)cc1	0.1	/
13	CC(C)CNC(=O)C1CCN(C(=O)c2ccc(F)cc2)CC1	-1	-0.175
14	COc1ccccc1NC(=O)C1COc2ccccc2O1 (centres undefined)	/	-0.1
15	O=C(CN1CCOc2ccccc21)NCc1ccco1	1.2	-0.5
16	COc1cc(C2C(C(=O)N3CCOCC3)=C(C)NC3=C2C(=O)CC(C)(C)C3)ccc1OCc1ccccc1 (centres undefined)	/	20.5

Other entries follow.
#	SMILES	AID504770	CapD inh
17	Cc1ccc(/C=C2/N=C(c3ccccc3)NNC2=O)cc1	1.7	-2.34
18	O=C1c2sc3nnc(-c4cccs4)c(=O)n3c2C(=O)N1c1ccccc1	/	0.225
19	Clc1ccc(-c2nnc(C3CC3)o2)cc1	0.5	-0.595
20	O=C(c1ccc2c(c1)CCO2)N1CC=C(c2ccccc2)CC1	-0.65	0.515
21	O=C1CCCC2=C1C(c1ccccc1Cl)N=C(Nc1nc3ccccc3s1)N2 (centres undefined)	1.2	1.31
22	CNC(=O)c1csc(-c2ccccc2)n1	-0.35	-0.19
23	Cn1c(=NC(=O)C2CCCCC2)sc2cc(F)ccc21	-0.55	/
24	Cn1ncc2c(N3CCCCC3)nc(N3CCCC3)nc21	1.05	/

(cont.)
#	SMILES	AID504770	CapD inh
25	CC(=O)c1ccc(NC(=O)CSc2nnc(NC(=O)CSc3nnc4n(N)cnn34)s2)cc1	/	-0.38
26	CCCc1noc(-c2ccc(Br)cc2)n1	-0.65	-0.105
27	CCOC(=O)c1sc2nc(CN3CCOCC3)nc(NCC3COc4ccccc4O3)c2c1C (centres undefined)	0.95	/
28	Brc1ccc(CN2C3=NCCN3c3ccccc32)cc1	/	-0.285
29	CSc1nc(-c2cnccn2)nc(C2CC2)c1C#N	/	0.12
30	C=CCN1CCS(=O)(=O)CC1	/	-0.62
31	COc1ccc(C2(O)CCN(CCCCOc3ccccc3)CC2)cc1	-0.65	/
32	CN1CCN(c2nc(-c3ccc(Br)cc3)nc3ccccc23)CC1	/	-0.01

Additional structures follow:
#	SMILES	AID504770	CapD inh
33	Nc1cccc2c1C(=O)N(C(=O)c1ccc3c(c1)S(=O)(=O)N=C1CCCCCN13)C2=O	-0.05	/
34	CCC(C)(NC)c1nnnn1-c1ccc(Cl)cc1 (centres undefined)	/	-0.475
35	CC1(C)Cc2ccccc2C(C(=O)c2ccccc2)=N1	-0.5	-0.34
36	OCCN1CCN(c2ncnc3ccc(Br)cc23)CC1	-1	-0.95
37	COC(=O)c1ccc2c(=O)n(CC3CCCO3)c(SCc3coc(-c4cccs4)n3)nc2c1 (centres undefined)	1.45	/
38	Cc1c(Br)c(C(F)(F)F)nn1CC(=O)Nn1c(-c2ccccc2F)nc2ccccc2c1=O	/	-0.14
39	CCOc1[nH]n(-c2ccccc2)c(=O)c1C=NCc1ccc(Cl)cc1Cl	/	-0.445
40	Cn1c(=O)c2c(ncn2CCC(=O)NCCc2ccc(F)cc2)n(C)c1=O	0.05	/

Next section
#	SMILES	AID504770	CapD inh
41	O=S(=O)(NCCOC12CC3CC(CC(C3)C1)C2)c1cc(Cl)ccc1Cl	-0.4	-0.095
42	N#Cc1ccccc1Oc1ccccc1F	0.05	-0.785
43	Cc1cc2c(cc1S(=O)(=O)NC1CCCCC1)OCCN2C	0.95	-3.35
44	Cc1ccnc(NC(=O)CSc2ccccn2)c1	-0.05	-0.265
45	CS(=O)(=O)c1nsc(S(C)(=O)=O)c1C(N)=O	/	-1.35
46	COc1ccc(CSc2ccc(S(=O)(=O)N3CCc4ccccc43)cc2C(=O)NCC2CCCO2)cc1 (centres undefined)	/	0.39
47	CS(=O)(=O)c1ccc(Cl)c(C(=O)OCC(=O)c2ccc3c(c2)OCO3)c1	1	/
48	O=C(CSc1nnnn1C1CCCC1)Nc1nc2ccc(F)cc2s1	1.1	/

Other results.
#	SMILES	AID504770	CapD inh
49	CC1(C)CC(=O)C2=C(C1)Nc1ccc3ccccc3c1C2c1ccccc1F (centres undefined)	/	3.81
50	O=C(OCc1ccco1)c1cnc(Nc2ccc(OC(F)(F)F)cc2)nc1C(F)(F)F	-0.5	0.05
51	COc1ccc(C(=O)N(C)C2CCCCC2)cc1	-0.8	-0.095
52	COC(=O)CSc1nc(-c2ccc(F)cc2)[nH]c1-c1ccc(C)cc1	0.2	0.335
53	Cc1sc(NC(=O)c2ccco2)c(C(c2ccncc2)N2CCOCC2)c1C (centres undefined)	-0.15	-0.35
54	O=C(/C=C/c1cccs1)Nc1nnc(-c2cccs2)o1	-0.2	/
55	COc1cc(OC)cc(-c2nc3ccccc3c(=O)n2OC(=O)/C=C/c2ccccc2Cl)c1	/	-0.62
56	CSc1sc(Cl)c2c1C(=O)CC(C)(C)C2	/	-0.805

(continued)
#	SMILES	AID504770	CapD inh
57	COc1ccc(CNC(=O)c2csc(Cc3ccc(OC)cc3)n2)cc1	/	-0.18
58	NC(=O)C1C2CCC(C2)C1C(=O)c1ccccc1 (centres undefined)	-0.4	0.225
59	Cn1c(Cn2c(=O)sc3ccccc32)nnc1SCc1ccc(Cl)cc1	-0.85	/
60	CCOC(=O)c1c(C)n(Cc2ccccc2)c2ccc(O)cc12	-0.1	0.22
61	CCOC(=O)CC(=O)CSc1nc2c(sc(=S)n2-c2ccccc2OC)c(=O)n1Cc1ccco1	/	-0.095
62	CCCCn1c(=O)c(C(=O)OCC)c(O)c2ccccc21	-0.65	/
63	COC(=O)c1sc2ncccc2c1OCc1ccc(Cl)c(Cl)c1	/	0.02
64	COCCNC(=O)c1ccc(-c2cnn(C(C)C)c2)nc1	/	3.58

The list continues.
#	SMILES	AID504770	CapD inh
65	COC(=O)c1cn(C(=O)OC)c2ccccc12	0.9	/
66	O=C(NCCNCc1ccco1)c1ccccc1	0.85	/
67	CCCOc1ccc2c(c1)C(=O)c1cc(O)ccc1-2	/	-0.23
68	CC(C)(C)C(=O)Nc1ccccc1C(=O)Nc1nccs1	-0.35	/
69	O=C1/C(=C/c2ccc([N+](=O)[O-])cc2)C=C(c2ccccc2)N1c1ccccc1	/	-0.3
70	Cc1cc(C)nc(SCc2nnc(Nc3ccc(S(N)(=O)=O)cc3)s2)n1	-0.5	0.365
71	COCCN=C1NN=C(c2cc(C)n(CCc3ccc(F)cc3)c2C)CS1	-0.5	/
72	COC(=O)C(NC(=O)CC12CC3CC(CC(C3)C1)C2)C(C)C (centres undefined)	-0.65	0.185

(further entries)
#	SMILES	AID504770	CapD inh
73	c1csc(SCc2ccc3nonc3c2)c1	-0.4	-0.175
74	Cc1cccc(NC(=O)c2ccc(C)c(S(=O)(=O)N3CCCC3)c2)c1	-0.25	0.12
75	CCN(Cc1ccccc1)C(=O)Nc1c[nH]c2ccccc12	1.6	/
76	CN(CC(=O)NC1(C#N)CCCC1)c1ccccc1	-0.3	/
77	Cc1onc(-c2c(F)cccc2Cl)c1C(=O)Nc1nnc(C2CC2)s1	1.35	-0.25
78	CCOC(=O)CSc1n[nH]c(-c2ccco2)n1	/	-0.425
79	O=C(O)CC1NC(=O)c2ccccc21 (centres undefined)	-1.05	-0.205
80	CN(CC#N)c1ccc(C2OCC3(CCC4(COC(c5ccc(N(C)CC#N)cc5)OC4)C3=O)CO2)cc1 (centres undefined)	-0.2	/

Entries of single compounds as entered above. Screens in order: AID504770 | CapD inh
Profile of COC(=O)c1sc2ncccc2c1OCc1ccc(Cl)c(Cl)c1 → / | 0.02
Profile of CCC(=O)N1CCc2cc(S(=O)(=O)NC(CC(C)C)C(=O)Nc3cc(C)ccc3C)ccc21 (centres undefined) → -0.2 | 1.11
Profile of CC1(C)CC(=O)C2=C(C1)Nc1ccc3ccccc3c1C2c1ccccc1F (centres undefined) → / | 3.81
Profile of Cc1ccc(/C=C2/N=C(c3ccccc3)NNC2=O)cc1 → 1.7 | -2.34
Profile of CC(C)CNC(=O)C1CCN(C(=O)c2ccc(F)cc2)CC1 → -1 | -0.175

The results go on.
#	SMILES	AID504770	CapD inh
81	NC(=O)c1ccc2c3c(cccc13)CC2	-0.5	94.4
82	Cn1ccnc1CC(O)(c1ccccc1)c1ccccc1	-0.15	0.11
83	CCOc1ccc(C2CSc3nc4ccccc4n3C2=O)cc1 (centres undefined)	1.7	0.075
84	CCN1CCN(C(=O)c2sc3nc(C)nc(N4CCN(c5ccccn5)CC4)c3c2C)CC1	/	-0.415
85	Cc1nccn1S(=O)(=O)c1c(C(C)C)cc(C(C)C)cc1C(C)C	-0.45	/
86	O=c1c(-c2nc3ccccc3s2)coc2cc(OCc3ccc([N+](=O)[O-])cc3)ccc12	/	-0.05
87	N#Cc1ccc(-c2ccccc2)nc1SC1CC(=O)N(c2ccccc2)C1=O (centres undefined)	/	-0.875
88	C=CCN1C(=O)NC(=O)/C(=C/c2ccc(-c3cc([N+](=O)[O-])ccc3Cl)o2)C1=O	/	0.7

(list continues)
#	SMILES	AID504770	CapD inh
89	CC1Sc2ccc(C(=O)Nc3ccc(S(=O)(=O)NCc4ccco4)cc3)cc2NC1=O (centres undefined)	-0.35	/
90	O=C(NCCc1ccncc1)c1c(Cl)cccc1Cl	/	0.27
91	O=C(NC1=NCCS1)C1CCN(c2ncc(C(F)(F)F)cc2Cl)CC1	-2.45	/
92	CS/C(N)=N/S(=O)(=O)c1cccs1	-1	/
93	CCOc1ccc(-n2nnc(C(=O)NCCCn3ccnc3)c2C)cc1	0.5	-0.33
94	COc1ccc(Br)cc1S(=O)(=O)n1c([N+](=O)[O-])cnc1C	/	-0.47
95	COCCn1c(=O)[nH]c2cc(C(=O)NCC3CCCO3)ccc2c1=O (centres undefined)	2.2	32.3
96	Cc1nc(-c2c(C(=O)NNC(=O)OCCN3CCOCC3)noc2C)cs1	/	-0.315

Next section
#	SMILES	AID504770	CapD inh
97	CC1CN(C(=S)NCc2ccco2)CC(C)O1 (centres undefined)	-0.95	-0.11
98	COC(=O)c1ccc(OCCN2C3=NCCN3c3ccccc32)cc1	-0.05	15.1
99	O=C(NC(=S)SCc1ccc(Cl)cc1)c1ccccc1	-0.55	-0.89
100	COC(=O)c1ccc(COC(=O)c2ccc3ncsc3c2)o1	-0.8	/
101	N#Cc1ccc(C(=O)OCC(=O)c2cc3ccccc3o2)cc1	0	/
102	O=C(CCNS(=O)(=O)c1ccc2[nH]c(=O)ccc2c1)Nc1ccc(CN2CCCCC2)cc1	-0.1	-0.235
103	CCC(C)NC(=O)/C=C/c1ccc(OCc2ccc(Br)cc2)cc1 (centres undefined)	/	-0.71
104	Cc1nc(N2CCCCC2)c2c(C)c(C(=O)Nc3ccc(Cl)cn3)sc2n1	/	7.13

Going on with the list:
#	SMILES	AID504770	CapD inh
105	CC(C)(C)C1CCC(OC(=O)CCC(=O)Nc2nccs2)CC1 (centres undefined)	-0.95	-0.5
106	O=C1Nc2ccccc2C1=NCCCN=C1C(=O)Nc2ccccc21	0.6	9.3
107	Cc1csc2c(=O)sc(NC(=O)c3cccs3)nc12	2.05	11.5
108	CCOC(=O)C1=CN(Cc2ccc(OC)cc2)C=C(C(=O)OCC)C1c1cc(OC)c(OC)cc1OC	/	8.44
109	Cc1cccc(-c2cc3nc(-c4ccccc4)cc(=O)n3[nH]2)c1	-0.6	/
110	NCC1COc2ccccc2O1 (centres undefined)	-1.1	/
111	COc1ccc(OC)c(C2CC(c3ccc(Br)cc3)=NN2C(=O)CCCC(=O)O)c1 (centres undefined)	/	0.065
112	CCOC(=O)C1=C(C)Nc2nnnn2C1c1cccc(Br)c1 (centres undefined)	/	-0.61

(next part)
#	SMILES	AID504770	CapD inh
113	COC(C(=O)NCc1ccc(C)cc1)c1ccccc1 (centres undefined)	-1.1	-0.43
114	Cc1cc(C)nc(NS(=O)(=O)c2ccc(NC(=O)c3ccc(Cl)cc3Cl)cc2)n1	/	-0.255
115	N#CC(CCN1CCNCC1)(c1ccccc1)c1ccccc1	-0.9	-0.115
116	COc1ccc(N2CC(NC(=O)N(CC(C)C)CC(C)C)CC2=O)cc1 (centres undefined)	0.65	/
117	O=C(CCc1ccc(-c2ccccc2)o1)N1CCN(S(=O)(=O)Cc2ccccc2)CC1	-0.3	/
118	CC(=O)c1cn(N2CCN(C)CC2)c(=O)n(Cc2ccc(F)cc2)c1=O	/	-0.545
119	Cc1nn(CCC#N)cc1C=C(C#N)C#N	-0.5	/
120	CCN(c1ccccc1)S(=O)(=O)c1ccc(-n2cccn2)cc1	-0.35	-0.085

Next compounds follow:
#	SMILES	AID504770	CapD inh
121	CC1CCCCC1NC(=O)c1cccc(N2C(=O)C3C4C=CC(C4)C3C2=O)c1 (centres undefined)	0	35.5
122	CCOc1cc(-c2ccccc2)nc(N)n1	-0.85	1.1
123	O=C(O)CN1CCC(c2ccccc2)CC1	-0.55	0.1
124	Cc1ccc(C)c(OC(=O)/C=C/c2ccco2)c1C	0.7	/
125	Cc1ccc(S(=O)(=O)NCC2COC3(CCCCC3)O2)cc1 (centres undefined)	-0.3	/
